VDR inhibitor: vitamin D3 receptor (human) inhibition; VDR-SRC2-3 peptide fluorescence polarization, 2 h; Potency, µM, for inactives: max response, negative = inhibition, hits mostly inhibitors; actives 0.93% (n = 400,000); active means well fitted inhibition curve with a large enough effect; inconclusive means small, poorly fitted or top-dose-only effect, or another doubt; inactive means no such curve, though single readings can be large or run the other way; further: series mostly up to about 120 µM
Target sequence (P11473 whole entry, looked up): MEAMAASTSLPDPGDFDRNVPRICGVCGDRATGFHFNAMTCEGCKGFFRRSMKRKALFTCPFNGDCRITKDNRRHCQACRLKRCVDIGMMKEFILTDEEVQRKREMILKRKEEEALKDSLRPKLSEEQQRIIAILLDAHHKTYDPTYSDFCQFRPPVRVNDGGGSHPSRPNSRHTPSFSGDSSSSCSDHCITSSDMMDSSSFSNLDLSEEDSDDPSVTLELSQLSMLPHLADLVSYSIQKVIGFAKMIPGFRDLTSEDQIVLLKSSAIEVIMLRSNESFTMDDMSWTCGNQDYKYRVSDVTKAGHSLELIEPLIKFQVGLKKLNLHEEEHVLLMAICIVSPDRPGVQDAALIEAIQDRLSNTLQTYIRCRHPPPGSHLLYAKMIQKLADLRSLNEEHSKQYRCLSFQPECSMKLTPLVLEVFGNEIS
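Fluorescence polarization assay measuring small-molecule disruption of VDR binding to the coregulator peptide SRC2-3. Compounds were pin-transferred (23 nl) into the reagent mix and incubated 2 h at room temperature before reading.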
* marks the source's active call; other numbers are inactive results; ? = inconclusive; & = joins results of further samples. On the % scale 0 is the no-effect control and ±100 the full control effect; potency means the concentration at half of the fitted maximal effect. This is a subset, so the mix of outcomes need not match the whole.

SMILES	VDR inhibitor
O=C(Cn1ccc([N+](=O)[O-])n1)NCc1ccccc1	-27.1%
O=C(COC(=O)c1ccc(Cl)nc1)c1ccc2c(c1)OCCO2	2.4%
COc1ccc(C(=O)COC(=O)C(O)c2ccccc2)c(OC)c1 (stereo unspecified)	-1.1%
COc1cc(C2CC(=O)Oc3c(C(CCN4CCN(c5ccccc5)CC4)c4ccc(N(C)C)cc4)c(OC)cc(OC)c32)cc(OC)c1OC (stereo unspecified)	-13.7%&-12.3%
COC(=O)c1c(NC(=O)COc2ccccc2Cl)sc2c1CCC(C(C)(C)C)C2 (stereo unspecified)	14.0%
CCCc1cc2c(=O)c(-c3nc4ccccc4s3)c(COCC(=O)O)oc2cc1O	2.5%
O=C(NNc1nc(=O)c2cccnc2s1)c1ccccc1O	-5.2%
CCCCN(C)CCNC(=O)CN1C(=O)CSc2ccc(S(=O)(=O)N3CCCC3)cc21	-7.5%
CC(C)c1ccc(NC(=S)N2CCN(S(=O)(=O)c3ccccc3)CC2)cc1	14.4%
S=C1NC2=C(CCC/C2=C\c2ccccc2)C(c2ccccc2)N1 (stereo unspecified)	89.1µM*
Cc1ccc(C)c(C(C)NC(=O)CC#N)c1 (stereo unspecified)	-0.6%
CCOC(=O)c1cnc2c(OC)cccc2c1Oc1ccccc1	-4.8%
CN(C)Cc1ccccc1Sc1ccc(O)cc1O	-2.8%
Cc1nnc(SCC(=O)Nc2sc3c(c2C#N)CCCC3)[nH]c1=O	-8.0%
COc1ccccc1NS(=O)(=O)c1cc(N)ccc1N1CCCCC1	-15.5%
COc1ccc(NC(=O)C(NC(C)=O)C(=O)NCc2ccccc2OC)cc1 (stereo unspecified)	5.1%
CC1(C)CC(=O)C2=C(C1)Nc1ccccc1NC2c1cccc(F)c1 (stereo unspecified)	5.1%
COC(CNC(=O)C(=O)Nc1cc2c3c(c1)CC(=O)N3CCC2)OC	-0.6%
Cc1ccc(NC(=O)CCn2c(=O)c3cccn3c3ccccc32)c(Cl)c1	-4.0%
COCCN(C(=O)COC(=O)CSc1ccc2ccccc2c1)c1c(N)n(Cc2ccccc2)c(=O)[nH]c1=O	10.1%

Random excerpt: 4 entries already listed
SMILES	VDR inhibitor
S=C1NC2=C(CCC/C2=C\c2ccccc2)C(c2ccccc2)N1 (stereo unspecified)	89.1µM*
Cc1ccc(NC(=O)CCn2c(=O)c3cccn3c3ccccc32)c(Cl)c1	-4.0%
CCCCN(C)CCNC(=O)CN1C(=O)CSc2ccc(S(=O)(=O)N3CCCC3)cc21	-7.5%
CC(C)c1ccc(NC(=S)N2CCN(S(=O)(=O)c3ccccc3)CC2)cc1	14.4%

3 structures from above, ordered by SMILES length, low to high:
SMILES	VDR inhibitor
O=C(NNc1nc(=O)c2cccnc2s1)c1ccccc1O	-5.2%
O=C(COC(=O)c1ccc(Cl)nc1)c1ccc2c(c1)OCCO2	2.4%
COCCN(C(=O)COC(=O)CSc1ccc2ccccc2c1)c1c(N)n(Cc2ccccc2)c(=O)[nH]c1=O	10.1%

(more compounds)
SMILES	VDR inhibitor
CC(=O)Oc1ccc(C(=O)Nc2ccccc2C(=O)NCC(C)C)cc1	-5.7%
Cc1cc(C)c(NC(=S)N(CCN(C)C)C(C)c2cccnc2)c(C)c1 (stereo unspecified)	-17.3%
Cc1nc(N)sc1C(=O)NN	12.9%
COc1ccc(OCCCC(=O)Nc2cccc([N+](=O)[O-])c2)cc1	-23.1%
Cc1ccc(C2=NO[C@@](CC(=O)O)(C(=O)Nc3ccc4c(c3)OCCO4)C2)cc1	-14.9%
O=C(CNC(=O)c1nc[nH]c1C(=O)N1CCc2ccccc2C1)OCc1ccccc1	79.4µM*
CCOc1ccc(N2C(=O)CC(Sc3nc(O)c(CC)c(=O)[nH]3)C2=O)cc1 (stereo unspecified)	-1.5%
Cc1ccc(CNC(=O)C2CCC(=O)N2C(C)C)cc1 (stereo unspecified)	-3.5%
Cn1c(CCNC(=O)c2ccco2)nc2ccccc21	8.9%
O=C(NC1CCSc2ccccc21)c1cccc(S(=O)(=O)N2CCOCC2)c1 (stereo unspecified)	-3.9%
CCOc1ccc2oc(C(=O)NC3CC(C)(C)NC(C)(C)C3)c(C)c2c1	-15.5%
CC1CCCCN1CCCNC(=O)c1[nH]c2ccccc2c1Sc1ccc(Cl)cc1 (stereo unspecified)	9.4%
COC(=O)c1c(NC(=O)CSc2nnc(Cn3nnc4ccccc43)n2C)sc(C)c1C	10.3%
Cc1csc(CN(C)C(=O)C2CCC(=O)N(CCCc3ccccc3)C2)n1 (stereo unspecified)	-15.4%
Cc1ccc(NC(=O)/C=C/C(=O)O)c(NC(=O)c2ccccc2)c1	-2.0%
CC(O)CSc1nc2c(c(=O)[nH]c(=O)n2C)n1CC(O)COc1ccccc1 (stereo unspecified)	?
CCc1nnc(NC(=O)C2CCN(c3nccc(C)n3)CC2)s1	26.3%
Cc1cc2c(cc1C)C(c1ccsc1)CC(=O)N2 (stereo unspecified)	?
COc1ccc(NC(=O)COC(=O)c2ccc(OCc3ccccc3Cl)c(OC)c2)c(OC)c1	-10.6%
Cc1cccc(-n2c(N)c(C(=O)NCCN3CCOCC3)c3nc4ccccc4nc32)c1	5.6%
Cc1ccc(NC(=O)Cn2c(=O)nc(-c3ccccc3)c3ccccc32)cc1F	6.7%
COc1cc(O)c(C)c(O)c1	0.1%
COc1ccc(CCNC(=O)C(=O)NCCC2CCCCN2S(=O)(=O)c2cccs2)cc1 (stereo unspecified)	-5.3%
CC(C)(C)C(=O)CN1C(=O)NC2(CCCc3ccccc32)C1=O (stereo unspecified)	-3.1%
Cc1ccc(NC(=O)Cn2c(=O)ccc3cc(S(=O)(=O)N4CCCC4)ccc32)cc1C	6.1%
CCOC(=O)Cn1ccc(NC(=O)COc2ccc(F)cc2)n1	-3.2%
COc1ccc(Cl)cc1N(CC(=O)N/N=C/c1ccc(OCC(N)=O)cc1)S(C)(=O)=O	4.2%
CCN(/C=N/c1sc2c(c1C#N)CCCCC2)CC	-0.7%
Cc1cc(OCC(=O)Nc2ccccc2N2CCOCC2)c(C(C)C)cc1Cl	-3.6%
COCCn1c(=NC(=O)CN2C(=O)CCC2=O)sc2cc(S(N)(=O)=O)ccc21	-19.2%
Cc1ccc(NC(=O)c2sc(Cl)nc2-c2ccccc2)cc1	5.5%
N#Cc1c2n(c3c(=O)n(Cc4ccccc4Cl)cnc13)CCCC2	1.2%
O=S(=O)(c1cccc2cccnc12)N1CCN(Cc2ccc3c(c2)OCO3)CC1	18.4%
CC(=O)OC1COC(n2c(O)c(N=NC(N)=S)c3ccccc32)C(OC(C)=O)C1OC(C)=O (stereo unspecified)	-4.9%
NC(=O)Cc1nc2scc(-c3ccccc3)c2c(=O)[nH]1	-18.0%
Cc1ccc(S(=O)(=O)N2CCN(C(=O)CN3CCOCC3)C2C(C)C)cc1 (stereo unspecified)	-4.7%
CC(=O)Nc1ccc(S(=O)(=O)N2CCCC2C(=O)Nc2ccc(F)cc2)cc1 (stereo unspecified)	-2.6%
CC(C)C[C@@H](NC(=O)[C@H](Cc1ccccc1)NC(=O)c1cnccn1)B(O)O	-10.1%
CCCn1c(SCC(=O)Nc2nnc(CC)s2)nnc1-c1ccncc1	10.7%
COc1cc(NC(=O)c2cnc(NCc3ccccc3)nc2C)cc(OC)c1OC	-3.7%
O=C(CCCCn1cnc2c(=S)nc[nH]c21)Nc1ccc(C(=O)O)cc1	8.2%
CCOC(=O)c1cccc(NC(=O)CCCn2c(=O)c3cccn3c3cccnc32)c1	-19.0%
O=C(/C=C/c1ccc(Br)cc1)c1ccc(NC(=O)c2ccco2)cc1	2.4%
COc1ccc(C(=O)/C=C/c2ccc(OC)c(CN3CCOCC3)c2)cc1	?
Cc1ccc(NC(=O)C(c2ccccc2)c2ccccc2)nc1	-33.0%
CC(=O)Nc1cccc(OCC(O)Cn2cnc3ccccc32)c1 (stereo unspecified)	3.2%
CCC(C(=O)OCC(=O)Nc1c(Cl)cccc1Cl)c1ccccc1 (stereo unspecified)	-5.7%
CC(C)(C)c1ccc(CNC(=O)C2CCCN2C(=O)Nc2ccccc2)cc1 (stereo unspecified)	0.2%
CN(Cc1ccccc1)C(=C(Cl)Cl)/C(=C1/NCCN1C)[N+](=O)[O-]	0.7%
CC(=O)Nc1ccc(Nc2ccccc2)cc1	3.9%
O=C(c1ccc(Br)cc1)N(c1ccccn1)C1CCCCC1	-3.0%
Cc1cccc(C)c1NC(=O)CN(C)C(=O)C1=COCCO1	21.2%
CCCCn1c(N)c(N(CC)C(=O)c2ccncc2)c(=O)[nH]c1=O	6.6%
O=C1c2cccc3cccc(c23)N1CN1CCN(c2ccccn2)CC1	0.6%
CN(CCNC(=O)c1c[nH]c2c1ccc1ccccc12)CCNC(=O)c1c[nH]c2c1ccc1ccccc12	-11.2%
Cc1cccc(S(=O)(=O)Nc2ccc3c(c2)OCCO3)c1	1.0%
CCOc1ccc(NS(=O)(=O)c2ccc3c(c2)CCN3C(=O)CCC(=O)O)cc1	0.0%
Cc1cc(Nc2ccc(Br)cc2)nc(-c2ccccc2O)n1	-7.9%
Cc1ccc(C(=O)N(C)c2nnc(-c3ccncc3)s2)cc1	18.3%
O=C(NC1CCCCC1)N1CCN(S(=O)(=O)c2ccc(F)cc2)CC1	8.1%
Remaining list, next part.
SMILES	VDR inhibitor
COc1ccc(NC(=O)COC(=O)Cc2ccsc2)c(OC)c1	-6.2%
CC(=O)Nc1cc(C(=O)N2CCCC2)ccc1Sc1ccc(C)cc1	-0.9%
O=C1N(Cc2cccc(Cl)c2)C[C@@H]2C[C@@H](c3ccco3)N3CCC[C@@]123	-15.7%
O=C(CN(c1cccc([N+](=O)[O-])c1)S(=O)(=O)c1ccccc1)NCc1ccccc1	-9.1%
O=C1OC(c2ccc(Cl)cc2)=N/C1=C\C=C\c1ccco1	1.5%
CCCCn1c(SCC(=O)NC(C)(C)C)nnc1-c1ccco1	1.3%
CCCC1(c2ccccc2)NC(=O)N(CC(=O)Nc2cc(S(=O)(=O)N3CCOCC3)ccc2Cl)C1=O (stereo unspecified)	-5.8%
N#Cc1nc(COc2cccc(Cl)c2)oc1N1CCN(c2ccccc2)CC1	3.7%
COC(=O)c1[nH]c2ccc(F)cc2c1NS(=O)(=O)c1ccc(OC)cc1OC	-4.7%
O=C(NN=Cc1c(O)ccc2ccccc12)c1ccc2c(c1)OCO2	-9.4%
Cc1ccc2c(c1)COc1c3ccc(C(=O)NC(C)C)cc3nn1-2	-10.1%
Cc1ccccc1C(=O)NC1CCN(C(=O)N2CCOCC2)CC1	-4.8%
Cc1ccc(/C([O-])=C(/C(=S)NCc2ccccc2)[n+]2ccccc2)cc1[N+](=O)[O-]	-5.6%
COc1ccccc1CCn1c(N)cc(=O)[nH]c1=O	7.4%
Cc1ccc(C)n1NC(=O)c1cccc(Cl)c1	20.1%
COC(=O)c1ccc(C)c(NC(=O)CCSc2ccc(C)cc2)c1	12.2%
COC(=O)c1c(NC(=O)/C=C/c2ccco2)sc2c1CCC2	-14.9%
O=C(Nc1ccccc1Cc1ccccc1)C1CC(=O)N(c2ccc3c(c2)OCCO3)C1 (stereo unspecified)	15.5%
NC(=S)N/N=C1\CC(n2nnn(-c3cccc(Cl)c3)c2=S)C2COC1O2 (stereo unspecified)	6.9%
CCOc1ccc(-c2nnc(SCC(=O)Nc3ccc(C)cc3C)o2)cc1	10.7%
Cc1ccc(C(=O)c2cn(Cc3ccc(Cl)cc3)c3nc(C)ccc3c2=O)cc1	-1.8%
O=C(CNC(=O)c1ccco1)OCc1ccccc1F	10.7%
Cc1ccc(F)cc1NC(=O)CCc1c(C)nn(-c2ccc(N3CCOCC3)nn2)c1C	-2.0%
Nc1c(C(=O)OCC(=O)Nc2ccc(Cl)cc2[N+](=O)[O-])[nH]c(=O)[nH]c1=O	-4.6%
CCn1c(=O)n(CC)c2cc(N3CCCCC3)c(NC(=O)Nc3ccccc3Cl)cc21	9.8%
COCCCN1C(=O)N(c2ccccc2)C(=O)C1CC(=O)Nc1ccc(F)cc1 (stereo unspecified)	-1.8%&-0.2%
COc1cc(OC)cc(C(=O)OCC(=O)Nc2ccc3[nH]c(=O)[nH]c3c2)c1	2.2%
COCCCn1nnnc1SCC(=O)N1CCCC1	-9.3%
O=C(NCC(c1ccccc1Cl)N1CCCC1)c1ccc(N2CCCC2=O)cc1 (stereo unspecified)	3.3%
S=C(Nc1cccnc1)NC1CC2CCC1C2 (stereo unspecified)	-3.8%
O=C(C1=C[C@H](c2csc3ccccc23)C[C@H](OCCCCO)O1)N1CCN(Cc2ccc3c(c2)OCO3)CC1	3.3%
CCOC(=O)c1c(C)n(C)c2ccc(OCC(O)CNCCc3ccccc3)cc12 (stereo unspecified)	-23.6%
CN(C)S(=O)(=O)c1cccc(NC(=O)c2cccc(NS(=O)(=O)c3ccccc3)c2)c1	4.4%
O=C(CCc1nnc(CCC2CCCCC2)o1)NCCc1cccnc1	-1.9%
COc1ccc(CCNC(=O)c2ccc(CNS(=O)(=O)c3cc(C)ccc3C)cc2)cc1OC	-4.3%
C/C(=N\NC(=O)c1cccc(F)c1)c1cccc(NC(=O)c2ccc(F)cc2)c1	-2.7%
COc1cc(NC(=O)C2CCN(c3cnccn3)CC2)cc(OC)c1	-1.6%&13.5%
CCCCNc1nc2c(c(=O)n(Cc3ccccc3)c(=O)n2C)n1C	0.5%&11.6%
CCO[C@H]1OC(C(=O)Nc2ccccc2)=C[C@@H](c2coc3ccccc3c2=O)[C@@H]1CCCO	-1.2%
COc1cc2ccccc2cc1C(=O)NC(=S)Nc1cccc(C(=O)O)c1	-12.6%
COc1cccc(NC(=O)CSc2ncc(S(=O)(=O)c3ccc(C)c(C)c3)c(=O)[nH]2)c1	-12.8%
CCN1CCN(c2ccc(S(=O)(=O)N3CCOCC3)cc2NC(=O)C(C)Oc2ccc(F)cc2)CC1 (stereo unspecified)	-5.0%
CCC(=O)NC(C)C(c1cccs1)N1CCOCC1 (stereo unspecified)	21.4%
O=C(NCCNC(=O)c1cc(Cl)ccc1Cl)c1cnccn1	10.5%
